# Compound activity deposited in PubChem BioAssay by National Center for Advancing Translational Sciences (NCATS).
# HSD17B inhib – HSD17B dehydrogenase inhibition; Q99714; recombinant HSD17B10, NADH fluorescence kinetic; many of its hits are not listed in these tables; Potency, µM (highest dose often 57.1 µM), without a hit: at the highest dose activity change, negative = inhibition, hits mostly inhibitors; 75,000 compounds, 7.6% hits; AID 893; active means well fitted inhibition curve with a large enough effect; inconclusive means small, poorly fitted or top-dose-only effect; inactive means no such curve, though single readings can be large or run the other way;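 further: the protocol describes HADH2 (HSD17B10) and not the HSD17B4 of the title; nearly all actives have a fitted effect of over 70% in size; most hits overshoot -100% by far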
#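 Activity followed as NADH fluorescence increase (ex 360, em 450 nm) every 30 seconds for 4 min, using final 90 uM beta-hydroxybutyryl CoA and 1 mM NAD+. Recombinant His-tagged enzyme, 20 nM, pH 9.0 Tris buffer, 15 min compound preincubation.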
# Active calls of the source: *; ? = inconclusive; [ ] = dose if it differs, or a comment. On the % scale 0 is the no-effect control and ±100 the full control effect; potency means the concentration at half of the fitted maximal effect. Not all compounds are listed, so the mix of outcomes need not match the whole.
Molecule	HSD17B inhib
CCn1c(=O)cc(OCC(=O)NCC2CCCO2)c2ccccc21 (stereo unspecified)	-5%
O=C(Oc1ccc(N(Cc2cccs2)C2=NS(=O)(=O)c3ccccc32)cc1)c1ccco1	?
CC12CCC(C(=O)N3CCCc4ccccc43)(CC1=O)C2(C)C (stereo unspecified)	14%
O=C(Nc1ccccc1C(F)(F)F)N1CCCC(O)C1 (stereo unspecified)	8%
CCOC(=O)C1C(=O)NC(N2CCOCC2)=NC1c1ccco1 (stereo unspecified)	5%
CC1(C)CC(=O)C=C(NCCN2CCN(C(=O)Nc3ccccc3)CC2)C1	-10%
COc1ccc(S(=O)(=O)n2nc(-c3cc(OC)c(OC)c(OC)c3)cc2N)cc1OC	0%
N#Cc1cccc(NC(=O)N2CC[C@@]3(CCCN(C(=O)c4ccncc4)C3)C2)c1	1%
O=C(NCc1cccs1)c1nn2cccnc2c1Cl	-1%
CC(=O)c1ccc(NC(=O)C2CCC(C)(C(=O)O)C2(C)C)cc1 (stereo unspecified)	3%
COc1ccc(S(=O)(=O)N(Cc2ccccc2)Cc2nc3ccccc3c(=O)[nH]2)cc1	-2%
CCn1c(=O)cc(OCC(=O)N2CCc3ccccc32)c2ccccc21	-5%
COc1ccc(N(C(C)=O)C2C=CS(=O)(=O)C2)c(OC)c1 (stereo unspecified)	-3%
Cc1noc(C)c1C(=O)N1CCC2(CCCN(C(=O)Nc3ccccc3)C2)CC1	-5%
Clc1ccc(Cc2noc(-c3cccs3)n2)cc1	-23%
CCOC(=O)c1ccc(NC(=O)c2c(C)[nH]c(C(=O)OCC)c2C)cc1	-7%
O=C(CCCCCN1C(=O)C2C3C=CC(C3)C2C1=O)Nc1nccs1 (stereo unspecified)	0%
COCCN1Cc2cccc(C(=O)Nc3ccc(S(=O)(=O)N4CCCCC4)cc3)c2C1=O	-4%
COc1ccc(N2CCN(C(=O)CCCC3=NS(=O)(=O)c4ccccc4N3)CC2)cc1	-4%
CCN1CCCC1Cn1cnc2c([nH]c3ccc(Cl)cc32)c1=O (stereo unspecified)	0%
OC(CN1C2=NCCCN2c2ccccc21)c1ccc(Cl)cc1 (stereo unspecified)	2%
CCC(Sc1nc(C)cc(C)n1)C(=O)O (stereo unspecified)	9%
CC(=O)Nc1ccc(S(=O)(=O)N2CCN(C(=O)N3CCCCCC3)CC2)cc1	-3%
C/C(=N\O)C(=O)NCc1ccccn1	10%
C=C(Cl)COc1ccc2c(C)cc(=O)oc2c1	25µM*
C=C1C(=O)OC2C1CC/C(C)=C/CCC1(C)OC21 (stereo unspecified)	-16%
CCc1oc(C(=O)O)cc1COC	-2%
Cc1cc(=S)n(-c2ccccc2)n1C	2%
O=C(CNC(=O)c1cnccn1)Nc1ccc(F)c(F)c1F	-1%
Cc1ccc(-c2csc3ncn(/N=C/N(C)C)c(=O)c23)o1	2%

# Part of the list above, set out differently:
COCCN1Cc2cccc(C(=O)Nc3ccc(S(=O)(=O)N4CCCCC4)cc3)c2C1=O
  HSD17B inhib: -4%

COc1ccc(N2CCN(C(=O)CCCC3=NS(=O)(=O)c4ccccc4N3)CC2)cc1
  HSD17B inhib: -4%

CCN1CCCC1Cn1cnc2c([nH]c3ccc(Cl)cc32)c1=O (stereo unspecified)
  HSD17B inhib: 0%

# (listing goes on)
Molecule	HSD17B inhib
COc1ccc(OC)c(NC(=O)CSc2nnc(-c3ccco3)n2-c2ccccc2)c1	5%
COC(=O)C/C=C\[C@@H](C)[C@@H](/C=N\O[C@@H](C)CN1CCCc2nc(C)c(C)cc21)OC	4µM*
C=CCn1c(N2C(=O)CC(Cc3ccccc3)C2=O)nc2ccccc21 (stereo unspecified)	-7%
Cc1ccc(S(=O)(=O)N2CCN(C(=O)CCC(=O)NC3CCCc4ccccc43)CC2)cc1 (stereo unspecified)	5%
O=C(c1ccc2c(c1)OCO2)N1CCCc2ccccc21	-9%
CCOC(=O)CSc1nnc(Cn2c(=O)sc3ccccc32)n1C	7%
CSc1nsc(SCC(=O)Nc2ccccn2)n1	3%
Cc1ccc(C)n1-c1ccncc1	6%
O=C1C(O)=C(O)C(=O)C(O)=C1O	-21%
CCOC(=O)CSc1nnc(CNC(=O)c2cccc(C)c2)n1-c1ccccc1OC	9%
CCOC(=O)C1CCCN(C(=O)Cn2sc3nc(C)cc(C)c3c2=O)C1 (stereo unspecified)	25µM*
CCOC(=O)N=S(N)(=O)c1ccc(Cl)cc1 (stereo unspecified)	-1%
NC(=O)COC(=O)c1ccc(S(=O)(=O)N2CCCCCC2)cc1	2%
COc1ccc(CNC(=O)Nc2cccc(C)c2)cc1	-7%
N#Cc1cc2c(nc1SCc1ccccc1)CCCC2=O	-1%
O=c1c2ccc(-c3nnc4n3-c3ccccc3SC4)cc2nc2n1CCCCC2	10%
O=C(Nc1nnc(-c2ccco2)s1)C1CCCCC1	?
C[N+](C)(C)CC=O	4%
Cn1cccc1Cc1nnc(SCC(=O)NCc2ccc(F)cc2)n1-c1ccc(F)cc1	25%
COCCn1c(=O)c2c3c(sc2n(CC(N)=O)c1=O)CCCC3	-8%
CCN(CC)CCCNC(=O)CC1Oc2ccc(C)cc2NC1=O (stereo unspecified)	-4%
CCOc1ccccc1C1C(C(=O)Nc2ccccc2OC)=C(C)Nc2nc(CCCO)nn21 (stereo unspecified)	-4%
Oc1c(C(c2ccc(F)cc2)N2CCc3ccccc3C2)sc2ncnn12 (stereo unspecified)	11%
CCOc1ccc(CCNC(=O)C2CCN(S(=O)(=O)CC)CC2)cc1OCC	4%
Cc1cc2cc(C(c3nnnn3Cc3ccco3)N3CCc4ccccc4C3)c(=O)[nH]c2cc1C (stereo unspecified)	?
CCc1cc(=O)oc2cc(OCC(=O)N(CC)CC)c(Cl)cc12	25µM*
CC(c1ccccc1)N1C(=O)c2ccc(C(=O)NCc3ccco3)cc2C1=O (stereo unspecified)	4%
Nc1ccccc1[N+](=O)[O-]	-1%
Cc1nnc(NC(=O)CSc2nnc(Cc3cccn3C)n2-c2ccccc2)s1	-3%
Cc1sc2ncnc(N[C@@H](CCC(=O)O)C(=O)O)c2c1C	3%

# Remaining list, next part:
Molecule	HSD17B inhib
CCCc1nc2c(=O)[nH]c3ccccc3c2o1	-3%
COC(=O)c1ccc2c(=O)n(CCN3CCOCC3)c(SCC(=O)NC3CCCCC3)nc2c1	0%
CCC(CC)(CC(=O)Nc1cccc(/C=C/c2nc(C3CCC3)cs2)c1)C(=O)O	25µM*
Cc1ccc(NC(=O)CNc2cccc(C)c2C)c(C)c1	1%
CCOC(=O)c1c(C)[nH]c(NC(=O)Nc2c(C)n(C)n(-c3ccccc3)c2=O)c1C	5%
Cc1ccc(N2CC(C(=O)OCC(=O)C(C)(C)C)CC2=O)cc1 (stereo unspecified)	11%
O=S1(=O)CCC(N=Cc2cc(Br)ccc2O)C1 (stereo unspecified)	-4%
Cc1cc(-c2nnc3sc(C4CCCCC4)nn23)n[nH]1	2%
COCCSc1ccccc1C(=O)Nc1cc(C)on1	?
O=C(CSc1nnc(CN2CCCCCC2=O)n1-c1ccccn1)NCC(F)(F)F	5%
Cc1cc(C)n2nc(S(=O)(=O)N(C)Cc3ccccc3)nc2n1	1%
COc1ccc2c(CN(C)c3ccccc3)cc(=O)oc2c1	32µM*
CCC/C=C(\CCC)C(NC(=O)c1ccco1)c1ccc(C(=O)OC)cc1 (stereo unspecified)	-15%
O=C(CC1CCCCC1)NCC1CCCO1 (stereo unspecified)	5%
O=C(Nc1ccccc1C(F)(F)F)c1cc(-c2cccc(O)c2)on1	1%
COc1ccc(N2CCN(C(=O)c3ccc(CS(=O)(=O)c4ccc(OC)cc4)o3)CC2)cc1	4%
Cl/C(=C\n1cncn1)c1ccc(Cl)cc1Cl	-29%
CC(C)CCNC(=O)C(C)N(Cc1ccc(F)cc1)C(=O)c1ccc(CN2CCCCC2)o1 (stereo unspecified)	2%
c1cn(-c2ccnc(-c3ccc4c(c3)OCO4)n2)cn1	-1%
COc1ccc(CC(=O)OC(C)CN2CCCC2)cc1 (stereo unspecified)	-3%
O=C(Nc1nc2c(s1)CCCC2)c1ccc(Br)s1	-5%
Cn1cccc1C(=O)N1CCC2(CC1)CN(Cc1cc(C(F)(F)F)cc(C(F)(F)F)c1)C2	-2%
COc1ccc(-n2cnnc2SCc2csc(-c3ccccc3)n2)cc1	-16%
COc1ccc(-c2cc(C(=O)N3CCCc4ccccc43)no2)cc1OC	-7%
Cc1ccc(Cn2cccc(NC(=O)c3ccco3)c2=O)cc1	-3%
CCN(CC)CCNC(=O)c1c(O)c2cccc3c2n(c1=O)CCC3	-11%
Cc1nn(C)cc1CNC(=O)c1ccccc1Br	9%
Cc1ccc(S(=O)(=O)CC(=O)N(C)C)cc1	-1%
O=C(Nc1nnc(C2CC2)s1)c1cc(-c2ccccc2)nn1-c1ccccc1	-4%
COc1ccc(NS(=O)(=O)c2ccc3oc4ccccc4c3c2)cn1	6%

# 3 records picked at random from those above:
Molecule	HSD17B inhib
CCOC(=O)c1c(C)[nH]c(NC(=O)Nc2c(C)n(C)n(-c3ccccc3)c2=O)c1C	5%
Cc1cc(-c2nnc3sc(C4CCCCC4)nn23)n[nH]1	2%
CCC/C=C(\CCC)C(NC(=O)c1ccco1)c1ccc(C(=O)OC)cc1 (stereo unspecified)	-15%

# (cont.)
Molecule	HSD17B inhib
COc1ccccc1OCC(=O)Nc1ccc(S(=O)(=O)Nc2nc(C)cc(C)n2)cc1	3%
CCCS(=O)(=O)N1CCN(C(=O)c2ccccc2F)CC1	0%
CC(=O)c1cc2c(cc1NC(=O)CCn1cccc1)OCO2	2%
COc1ccc(OC)c(NC(=O)CNC(=O)Cn2ccc3ccccc3c2=O)c1	1%
COc1cc(SC)ccc1C(=O)Nc1ccc2c(c1)CCN2S(C)(=O)=O	?
O=C(NC1CCCCC1)C(c1cccs1)N(CC1CCCO1)C(=O)c1csnn1 (stereo unspecified)	7%
COc1ccc2nc(C)[nH]c(=O)c2c1	?
O=C(Cc1c[nH]c2ccccc12)Nc1nccs1	6%
Clc1ccc(NC2=NCCCCC2)cc1	2%
Cc1ccnc(SCCn2c(N3CCCCC3)nc3c2c(=O)n(C)c(=O)n3C)n1	-3%
CC1CCN(C(=O)CSc2nnc(Cc3cccn3C)n2CCc2ccccc2)CC1	12%
Cn1c(=O)c(=O)n(C)c2cc(S(=O)(=O)N3CCc4ccccc43)ccc21	3%
CC1CN(c2nc(-c3ccccc3)nc3ccccc23)CC(C)O1 (stereo unspecified)	?
O=C(c1cc(C(F)(F)F)cc(C(F)(F)F)c1)N1CCC2(CCCN(c3ccccc3)C2)CC1	-11%
COc1ccc(S(=O)(=O)N2CCC(C)CC2)cc1Br	-2%
Cc1noc(NS(=O)(=O)c2ccc(NC(=O)CS(=O)(=O)c3ccccc3)cc2)c1C	4%
CC(C)(C)c1onc(OCP(=O)(O)O)c1C[C@@H](N)C(=O)O	2%
COc1ccc(N2CC(C)Cn3c2nc2c3c(=O)n(Cc3ccccc3F)c(=O)n2C)c(OC)c1 (stereo unspecified)	?
O=C(Nn1c(Cc2cccs2)nc2ccccc2c1=O)c1cccs1	-4%
COC(=O)c1ccc(NC(=O)c2ccccc2N(C)S(C)(=O)=O)cc1	-10%
COc1ccccc1Cn1c(=O)c2ccccc2n2c(SCC(=O)N3CCCCC3)nnc12	-2%
CCOC(=O)C1CCN(C(=O)c2c(-c3c(Cl)cccc3Cl)noc2C)CC1	3%
CCCCN(CC)CCNC(=O)CN(C)S(=O)(=O)c1ccc2c(c1)c(=O)n(C)c(=O)n2C	1%
CCOCCCNC(=O)N[C@@H](C)C(=O)OC	5%
COc1cc(C(=O)Nc2nnc(-c3sccc3C)s2)cc(OC)c1OC	?
C=CCn1c(SCc2ccc(C#N)cc2)nnc1-c1cccc(OC)c1	1%
CCCCC(NC(=O)c1ccc(Cl)cc1)C(=O)O (stereo unspecified)	6%
CCOC(=O)N1CCC(Nc2nc3ccccc3nc2NS(=O)(=O)c2ccc(Cl)cc2)CC1	-18%
Cc1cc(C(F)(F)F)nn1CC(=O)N1CCCC1	8%
Cc1ccc(C2c3c(oc4ccccc4c3=O)C(=O)N2c2nnc(C(C)C)s2)o1 (stereo unspecified)	-8%

# Other entries follow.
Molecule	HSD17B inhib
CCN(CC(=O)O)S(=O)(=O)c1cc(Cl)ccc1Cl	-1%
COc1ccc(NC2CC(=O)NC2=O)cc1 (stereo unspecified)	3%
Cc1c(C)c(C)c(CC2(C)CSC2)c(CC2(C)CSC2)c1C	6%[11.4 µM]
COc1cccc(=O)c2c(C)n(C)c(C)c12	-14%
NC(=O)C1CCN(C(c2ccccc2Cl)c2nnnn2Cc2ccc3c(c2)OCO3)CC1 (stereo unspecified)	-4%
CCOC(=O)c1c(C)c(C(=O)NCc2cccs2)c(C)n1C	5%
CCOC(=O)c1[nH]nc2c1C(=O)N(CC)C2=O	32µM*
Cc1nc2cnc(Nc3ccccc3)nc2n(C2CC2)c1=O	?
O=C(O)c1sccc1S(=O)(=O)Nc1ccccc1N1CCCCC1	1%
CC[C@]12CCCN3CCc4c(n(c5ccccc45)C(=O)C1)[C@H]32	-8%
